Compound activity as filed in PubChem BioAssay.
UCH37 inh – inhibitors of human UCH37 deubiquitinase, primary screen, biochemical, Ub-AMC cleavage, fluorescence; Ubiquitin carboxyl-terminal hydrolase isozyme L5 (Homo sapiens), Q9Y5K5; purified proteasome/UCH37; inhibition, % (concentration not given with the values); hit rate 0.33% among 330,000; AID 588478, 2011;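 active = mean of two replicates above 20%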;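 note: 0% = compound-free wells with enzyme and 100% = wells lacking proteasome; stock transfer was 100 nL into about 20 µL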
Target sequence (Q9Y5K5 whole entry, looked up): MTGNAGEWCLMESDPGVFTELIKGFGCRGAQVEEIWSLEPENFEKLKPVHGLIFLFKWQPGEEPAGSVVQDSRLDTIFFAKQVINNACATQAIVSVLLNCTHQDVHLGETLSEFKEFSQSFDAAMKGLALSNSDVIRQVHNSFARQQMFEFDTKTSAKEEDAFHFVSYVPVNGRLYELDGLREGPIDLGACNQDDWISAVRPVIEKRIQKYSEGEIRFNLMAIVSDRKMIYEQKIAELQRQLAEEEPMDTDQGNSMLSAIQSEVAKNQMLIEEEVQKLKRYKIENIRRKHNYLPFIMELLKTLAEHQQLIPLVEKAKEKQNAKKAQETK
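Test system – human UCH37 enzyme supplied as purified proteasome complex · Incubation – 30 min preincubation with enzyme, 25 min cleavage at room temperature · Detection – AMC fluorescence from Ub-AMC cleavage, excitation 355 nm, emission 460 nm · Benchmarks – no-proteasome wells (full inhibition) and compound-free wells (no inhibition)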
HNF4A DNA FP – change in binding of human HNF4A to DNA, primary screen, biochemical, fluorescence polarization, FITC-DNA; Hepatocyte nuclear factor 4-alpha (Homo sapiens), P41235; 1 h; activity change, % at 10 µM; hit rate 0.3% among 360,000; in the data active = activity change above about 30%, passing the limit was not always enough;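 note: controls were the assay level and a saturating level of protein; the project sought stronger binding though the title names inhibitors; some compounds called inactive have numbers as strong as hits; positive values seem to mean higher polarization but the record does not say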
rRNA inh HTS – reduced GFP signal of wild-type E. coli, primary screen, bacterial rRNA inhibitor project, GFP/RFP fluorescence, OD600, single point; E. coli WT GFP vs humanized-ribosome RFP mutants, 24 h; active compounds read low; DMSO median 0, no signal -100; GFP signal change (wild-type ribosome), % (test concentration not listed); hit rate 1.6% among 350,000;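 active = significant combined selectivity score with lowered wild-type GFP, culture density cut under 30%, mutant RFP and density less affected; inactive = any of these conditions unmet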; note: one replicate is shown; some compounds called inactive have numbers as strong as hits
FGF22 binding – binders of human FGF22 protein, primary screen, FGF22 synaptogenesis inhibitor project, biophysical, thermal shift, single point; Fibroblast growth factor 22 (Homo sapiens), Q9HCT0; recombinant FGF22 thermal shift, SYPRO orange fluorescence; percent of sucrose octasulfate shift, DMSO zero; calls only at 9.99 µM; hit rate 1.5% among 340,000; AID 651658, 2012;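 active = melting point raised past a set limit in the mean and every replicate; three in four hits are not shown here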
Ecoli growth – E. coli growth inhibition, primary screen, OD600. hit rate 0.21% among 330,000. AID 1053175, 2014. OD600 absorbance (no concentration beside the values). Escherichia coli growth, 23 h; active compounds read low;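 active = OD600 absorbance below the run mean of sample wells minus 3.6 SD, in any replicate, cut at about 0.56 in these data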;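 note: stock transfer was 300 nL into about 60 µL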
Beta2AR agonist – beta2AR agonists driving receptor internalization, primary screen, cell-based, FAP fluorogen, flow cytometry. Am2.2-beta2AR cells; reference of the scale not given here. hit rate 0.43% among 340,000. response, % (no concentration beside the values);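 active = response above a set limit, near 3 SD of response in nonfluorescent compounds, cut at about 42% in these data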;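 note: stock transfer was 100 nL into about 11 µL; a reference agonist was the positive control; negative values mostly stem from fluorescent compounds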
Target sequence (P07550 whole entry, looked up): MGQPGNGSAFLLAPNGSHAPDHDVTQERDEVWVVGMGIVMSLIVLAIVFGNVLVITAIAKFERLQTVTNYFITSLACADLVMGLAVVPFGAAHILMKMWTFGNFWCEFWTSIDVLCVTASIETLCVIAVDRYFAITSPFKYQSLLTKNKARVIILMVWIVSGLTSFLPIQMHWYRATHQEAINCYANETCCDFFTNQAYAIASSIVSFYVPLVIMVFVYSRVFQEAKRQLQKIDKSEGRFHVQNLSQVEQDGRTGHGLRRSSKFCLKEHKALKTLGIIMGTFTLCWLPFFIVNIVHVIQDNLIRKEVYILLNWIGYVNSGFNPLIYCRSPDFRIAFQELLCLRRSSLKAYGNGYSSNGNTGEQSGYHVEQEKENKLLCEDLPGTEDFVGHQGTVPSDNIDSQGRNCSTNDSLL
ALR H2O2 inh – inhibitors of human ALR sulfhydryl oxidase, primary screen, biochemical, H2O2 detection, HRP-luminol luminescence, single point; purified ALR, DTT oxidation; AID 485317, 2010; inhibition, % (no concentration beside the values); FAD-linked sulfhydryl oxidase ALR (Homo sapiens), P55789; hit rate 3.8% among 290,000;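 active = mean and each replicate at 75% or more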;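 note: stock transfer was 7.5 nL into about 7.5 µL; 0% = neutral wells and 100% = wells with inactivated enzyme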
Target sequence (P55789 whole entry, looked up): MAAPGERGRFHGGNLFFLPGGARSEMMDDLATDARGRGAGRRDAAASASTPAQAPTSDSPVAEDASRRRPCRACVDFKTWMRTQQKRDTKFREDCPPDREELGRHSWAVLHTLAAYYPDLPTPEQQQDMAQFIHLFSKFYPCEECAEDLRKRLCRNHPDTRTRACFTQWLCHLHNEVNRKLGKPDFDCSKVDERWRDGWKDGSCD
rRNA inh HTS OD600 – second read-out of rRNA inh HTS, no call of its own (marks repeat the call); OD600 change, %; measured here: OD600 growth;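 optical density of the mix in the first replicate; 0 = DMSO median and -100 = no signal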
rRNA inh HTS RFP – second read-out of rRNA inh HTS, no call of its own (marks repeat the call); RFP signal change, %; measured here: RFP humanized mutant strains;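 first replicate; 0 = DMSO median and -100 = no signal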
Active calls of the source: *; i = inactive; / = not tested or not shown.

Under each structure – UCH37 inh | HNF4A DNA FP | rRNA inh HTS | rRNA inh HTS OD600 | rRNA inh HTS RFP | FGF22 binding | Ecoli growth | Beta2AR agonist | ALR H2O2 inh
> COc1ccc(/C=C\C(=O)NCC(=O)N/N=C/c2cccc(OC)c2O)cc1
  / | -0.8 | 9 | 4 | 0.2 | i | / | 1 | -3
> Cc1cc(N/N=C\c2ccc(Br)cc2)nc(-n2nc(C)cc2C)n1
  / | -2.6 | 13 | 1 | 3.1 | i | / | -4 | -2
> CSc1cccc(NC(=O)CSc2ncccc2C(=O)Oc2cccc([N+](=O)[O-])c2)c1
  1.5 | -1.9 | 1 | 2 | -11 | i | 0.75 | 5 | -2
> COc1cccc(N2C(=O)Nc3ccc(Br)cc3C2(O)C(=O)NCCCN(C)C)c1 (stereo not drawn)
  2.3 | 3.4 | 10 | 9 | 1.1 | i | 0.66 | 2 | -14
> CC1=CC=CC2=NC(=O)CC(C)(C(=O)N(CC(=O)NC(C)C)C3CCCC3)N12 (stereo not drawn)
  -419 | 0.7 | 18 | 16 | 0.8 | i | 0.72 | 2 | -2
> NC(N)=Nc1nc(-c2ccccc2)c2cc(Cl)ccc2n1
  -201 | 2.8 | -56 | -79 | -16 | i | 0.5 | 9 | -11
> OCC1(CC2CCCCO2)CCN(Cc2ccccc2-c2ccco2)CC1 (stereo not drawn)
  -0.2 | -0.6 | 17 | 3 | 0.7 | / | 0.6 | 3 | -8
> Cc1ccc(S(=O)(=O)NCc2csc(-c3cccs3)n2)cc1
  -3.4 | 1.9 | -3 | 4 | 5.9 | i | 0.63 | 2 | -17
> O[C@@H]1C[C@H](c2ccccc2)N(CC2CCCCC2)C[C@H]1n1cc(C2CC2)nn1
  / | -11 | -6 | -21 | 3.8 | i | / | / | /
> CCCc1c(C(=O)N/N=C/c2ccc3c(c2)OCO3)nnn1-c1nonc1N
  / | 5.5 | 3 | 11 | -3.4 | i | / | / | /
> Cc1ccc(SCCNC(=O)/C=C/c2ccc([N+](=O)[O-])cc2)cc1
  4.6 | 0.8 | / | / | / | i | 0.68 | -2 | -16
> COc1ccc2[nH]cc(CCNC(=O)CS(=O)(=O)Cc3ccccc3)c2c1
  0.7 | 1.8 | 0 | 0 | -0.5 | i | 0.68 | 1 | -6
> Cc1ccc2nc(SCC(=O)Nc3nonc3N)[nH]c2c1
  2.6 | 0.0 | 7 | -3 | -1.4 | i | 0.65 | -1 | /
> C=CCn1c(=O)c2c(nc3n2CCN3c2cccc(Cl)c2C)n(C)c1=O
  1.9 | -3.9 | / | / | / | / | 0.61 | 2 | -1
> CCOC(=O)N1CCN(C(=O)C2CCCN(S(=O)(=O)c3ccc(F)cc3)C2)CC1 (stereo not drawn)
  5.2 | 0.9 | 8 | 2 | 1.6 | i | 0.73 | 5 | -3
> Cc1ccnc(NS(=O)(=O)c2ccc(NS(=O)(=O)c3ccc([N+](=O)[O-])cc3)cc2)n1
  2.2 | -5.4 | -5 | 4 | -0.9 | i | 0.62 | 4 | -13
> Cc1[nH]c2ccccc2c1C(=O)COC(=O)Cn1cnc2ccccc21
  0.3 | 4.4 | -25 | -22 | -2.4 | i | 0.67 | 8 | -4
> Cc1ccc(NC(=S)NCCCN2CCOCC2)cc1C
  2.1 | -1.9 | 1 | 7 | -5.2 | i | 0.68 | 6 | 98*
> COCc1cc(C)n(CC(=O)NC(C)c2ccccc2)c(=O)c1C#N (stereo not drawn)
  -81 | 2.4 | / | / | / | / | 0.68 | 5 | -6
> CCCCc1c(C)nc2ccccc2c1SCCC#N
  0.0 | 3.1 | -28 | -38 | -5.4 | i | 0.67 | -2 | 1
> CC(O)(c1ccc(F)c(F)c1)c1nc(-c2cccc3cccnc23)cs1 (stereo not drawn)
  / | 1.4 | -45 | -61 | -11 | i | / | / | /
> CC(=O)c1c2c3c(c(Br)ccc3n(C)c1=O)C(=O)c1ccccc1-2
  / | -20 | 3 | 1 | 7.7 | i | / | 11 | -7
> CCCc1cc(C(=O)Nc2cc(C)nn2-c2ccccc2)no1
  1.5 | 1.0 | 2 | 1 | -5.1 | i | 0.71 | 6 | /
> N#Cc1ccc(OCC(=O)N2CCN(c3ccc(C(F)(F)F)cn3)CC2)cc1
  -0.2 | -0.1 | / | / | / | i | 0.72 | 3 | 1
> O=C(CN1C(=O)CC(c2ccco2)Sc2ccccc21)NCC1CCCO1 (stereo not drawn)
  4.4 | 1.4 | / | / | / | / | 0.63 | 3 | 2
> COC(=O)c1ccc(C(=O)OC)c(NC(=O)Oc2ccccc2)c1
  i | 2.2 | / | / | / | i | 0.66 | -1 | -12
> COc1ccc(N2C[C@H](C)[C@@H](CC(=O)Nc3ccccc3)C2=O)cc1
  / | -3.8 | -7 | -1 | -0.4 | i | / | / | /
> CCN1CCN(C(c2cccs2)C(C)NC(=S)Nc2cccc(C)c2C)CC1 (stereo not drawn)
  0.8 | -1.4 | 9 | 2 | -3.1 | i | 0.64 | -2 | 2
> CC(C)(C)OC(=O)CNC(=O)c1nc[nH]c1C(=O)NCc1ccc(CNC(=O)OC(C)(C)C)cc1
  2.8 | 1.4 | -8 | -10 | 25 | i | 0.68 | 15 | /
> COc1ccc(S(=O)(=O)N2c3ccccc3NC(=O)CC2C)cc1 (stereo not drawn)
  -1.3 | 2.0 | 7 | 16 | 2.1 | i | 0.7 | 6 | -4
> S=c1[nH]nc(-c2cccnc2)n1/N=C/c1ccco1
  / | 1.2 | 15 | 1 | -1.9 | i | / | -4 | 18
> CCCCC(=O)NC1=NC(=O)C(C)(C)S1
  2.2 | 1.5 | 22 | 19 | -5.8 | i | 0.72 | -3 | 27
> O=C(N/N=C/c1cccnc1)C(=O)N1CCCCCC1
  / | -0.7 | 14 | 7 | 2.1 | i | / | 1 | 1
> O=C(COC(=O)/C=C/c1ccccc1)NCc1ccc2c(c1)OCO2
  1.1 | 0.4 | 7 | 17 | -1.6 | i | 0.72 | -3 | 3
> CC(=O)c1c(O)cc(=O)n(-c2ccccc2)c1-c1ccc(Cl)cc1
  -0.1 | 2.2 | / | / | / | / | 0.69 | 3 | -1
> C=CCn1c(Cc2csc(N)n2)nnc1SCc1ccc(C(=O)OC)cc1
  -0.4 | 1.3 | 5 | 2 | -0.9 | / | 0.67 | -3 | -12
> Cc1ccc(NC(=O)COC(=O)COc2ccc(Cl)cc2)c([N+](=O)[O-])c1
  0.8 | -1.3 | 14 | 8 | 3.9 | i | 0.64 | -1 | -13
> CC1CCN(c2nc(-c3ccccc3O)nc3ccccc23)CC1
  6.9 | 0.7 | / | / | / | / | 0.72 | 0 | -1
> CCOC(=O)N1CCC(N2CCN(Cc3ccccc3)C(CCO)C2)CC1 (stereo not drawn)
  1.2 | -0.6 | 13 | 17 | 1.8 | i | 0.74 | 2 | -26
> O=C(NC(Cc1ccccc1)C(=O)O)/C(=C\c1ccccc1)NC(=O)c1ccco1 (stereo not drawn)
  1.6 | -3.0 | 8 | 10 | -2.1 | i | 0.67 | 0 | 6
> O=C(Cc1ccsc1)NNC(=O)c1cccc(Cl)c1
  1.6 | 0.7 | 14 | 10 | 0.6 | i | 0.69 | 3 | 1
> CC(C)(C)OC(=O)C[C@H]1C/C=C\C[C@H](CC(=O)NCCO)C(=O)N[C@@H](c2ccccc2)COC1=O
  1.6 | -2.7 | 9 | -15 | -3.6 | i | / | 26 | -1
> CN=c1scc(C)n1/N=C/c1cc(Br)c(O)c(OC)c1
  / | 4.0 | -15 | -8 | -3.0 | i | / | -2 | 99*
> CCC(=O)Nc1ccc(C(=O)OCC(=O)c2cccs2)cc1
  0.7 | 2.7 | 5 | 12 | -1.5 | i | 0.7 | 4 | -8
> CCOC(=O)CNC(=O)CSc1nc(-c2ccc(C)cc2)ns1
  5.1 | 1.8 | -11 | 0 | -1.0 | i | 0.7 | 19 | 29
> Cc1ccccc1N(Cc1cc(=O)[nH]c2ccccc12)C(=O)CCl
  / | -2.0 | 2 | 0 | 0.9 | i | / | 1 | -2
> COc1ccc(-c2nc(CS(=O)(=O)CC(=O)Nc3cccc(C(C)=O)c3)c(C)o2)cc1
  -1.3 | 2.6 | 6 | 11 | 8.0 | i | 0.7 | 1 | 45
> O=C(CCCCC(=O)NN=Cc1ccc2c(c1)CCC2)NN=Cc1ccc2c(c1)CCC2
  / | 5.2 | -4 | -15 | 0.6 | i | / | / | /
> O=C(Nc1ccccc1)c1ccc(-c2ccc([N+](=O)[O-])cc2)o1
  0.9 | 5.6 | -11 | -5 | 0.6 | i | 0.64 | -6 | /
> CN1CCN(CCC2Oc3cc([N+](=O)[O-])ccc3NC2=O)CC1 (stereo not drawn)
  9.6 | -0.6 | -1 | 12 | -1.6 | i | 0.69 | 0 | -13
> Cc1ccc(C(=O)Nc2ccc(F)cc2)o1
  -1.9 | 0.1 | / | / | / | i | 0.7 | 12 | /
> O=C(CCc1nnc2ccc(NCc3ccco3)nn12)Nc1ccc(F)cc1F
  2.0 | -5.4 | 0 | 2 | -1.2 | i | 0.72 | 0 | -7
> O=C(NCc1ccco1)c1cc2n(n1)C(C(F)(F)F)CC(c1ccc(F)cc1)N2 (stereo not drawn)
  -2.5 | -1.0 | / | / | / | / | 0.71 | 0 | /
> CCOC(=O)[C@H]1[C@H]2COc3ccc(Br)cc3[C@@H]2N2C(=O)CN(Cc3ccco3)C(=O)[C@@]12C
  0.4 | -3.0 | -5 | -6 | -0.1 | i | / | -2 | -1
> Cc1cc(C)nc(OC(C(=O)O)C(OCCc2ccccc2)(c2ccc(F)cc2)c2ccc(F)cc2)n1 (stereo not drawn)
  2.2 | -1.3 | 10 | 15 | 4.4 | i | 0.68 | -1 | -43
> COc1ccc(OCC(=O)N(C)Cc2ccccc2)cc1
  3.4 | 1.2 | / | / | / | / | 0.7 | -4 | -11
> CCOc1ccc(OCCC(=O)N2CCN(S(=O)(=O)c3cccc(F)c3)CC2)cc1
  5.8 | 0.0 | 6 | 11 | 1.9 | i | 0.65 | 10 | -2
> CC(O)(c1ccc(F)c(F)c1)c1nc(-c2ccoc2)cs1 (stereo not drawn)
  / | 10 | -5 | 6 | 8.7 | i | / | / | /
> Cn1cccc1C(=O)NC1CCCCCC1
  0.4 | -0.2 | -3 | -16 | -0.7 | i | 0.69 | 7 | /

2 of the compounds above, with bars between the fields:
Compound | UCH37 inh | HNF4A DNA FP | rRNA inh HTS | rRNA inh HTS OD600 | rRNA inh HTS RFP | FGF22 binding | Ecoli growth | Beta2AR agonist | ALR H2O2 inh
CN1CCN(CCC2Oc3cc([N+](=O)[O-])ccc3NC2=O)CC1 (stereo not drawn) | 9.6 | -0.6 | -1 | 12 | -1.6 | i | 0.69 | 0 | -13
Cc1ccccc1N(Cc1cc(=O)[nH]c2ccccc12)C(=O)CCl | / | -2.0 | 2 | 0 | 0.9 | i | / | 1 | -2

The list is partial; count on the stated rates, not on these rows.
